# A1 inh: inhibitors of the anti-apoptotic protein A1, read as caspase activation. caspase activation, % (no concentration beside the values). AID 2462. 330,000 compounds, 0.066% hits. MEF A1-2A-BIM cells, Caspase-Glo 3/7 luminescence, 3 h; percent of clofoctol response, vehicle zero;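 active = over half of replicate activation scores above 10%, or exactly half above 10 with the replicate mean above 10; inconclusive = replicate mean below 10 yet half the replicates above 10; inactive = over half of replicates below 10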;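 also: wells of about 30 µL received 50 nL stock; many hits fall short of the cut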
# Calb FLC: C. albicans growth modulation with fluconazole; growth inhibition, % (no concentration beside the values); AID 1979; C. albicans CaCi-2 (fluconazole-resistant clinical isolate) + fluconazole, Alamar Blue growth, 48 h; 300,000 compounds, 0.57% hits;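 active = most replicates above 75%; inconclusive = exactly half above 75%; inactive = most below 75%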;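 also: all wells also contain fluconazole at 8 µg/ml as a sub-toxic cotreatment; 0% = median of DMSO wells and 100% = median of geldanamycin control wells; wells of about 8 µL received 7.5 nL stock; the first replicate is given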
# LANA-H2B inh: blocks KSHV LANA binding to histone H2A/H2B | cell-free LANA-H2A/H2B peptide, fluorescence polarization | inhibition, % (test concentration not listed) | 320,000 compounds, 0.6% hits; in the data active = inhibition mostly above about 10%, no sharp cut-off; inactive = mostly below about 6.7%;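 also: stock transfer was 7.5 nL into about 10 µL; 0% = median of vehicle wells and 100% = median of positive control wells; one replicate is shown; the record names a cut of 25% in any replicate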
# B2AR ag: human beta-2 adrenergic receptor agonism by FAP. P07550. response, % (concentration not given with the values). Am2.2-beta2AR cells, FAP receptor internalization, flow cytometry; reference of the scale not given here. 340,000 compounds, 0.43% hits;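 active = response above a set limit, near 3 SD of response in nonfluorescent compounds, cut at about 42% in these data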;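 also: stock transfer was 100 nL into about 11 µL; a reference agonist was the positive control; negative values mostly stem from fluorescent compounds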
# Target sequence (P07550 whole entry, looked up): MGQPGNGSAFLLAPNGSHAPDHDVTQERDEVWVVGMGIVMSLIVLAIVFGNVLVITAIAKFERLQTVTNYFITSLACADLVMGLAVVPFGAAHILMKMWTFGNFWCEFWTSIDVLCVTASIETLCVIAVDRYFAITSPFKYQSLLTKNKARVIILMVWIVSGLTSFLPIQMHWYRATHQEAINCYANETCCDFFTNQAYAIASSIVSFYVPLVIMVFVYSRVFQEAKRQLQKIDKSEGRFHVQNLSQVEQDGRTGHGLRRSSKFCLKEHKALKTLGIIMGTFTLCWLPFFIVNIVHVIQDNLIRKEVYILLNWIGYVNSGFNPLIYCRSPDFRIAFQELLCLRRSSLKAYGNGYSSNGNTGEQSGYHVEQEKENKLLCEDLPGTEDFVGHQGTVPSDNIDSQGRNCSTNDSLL
# RanGTP-Impb inh: disruptors of Ran-importin-beta complex formation – biochemical, FRET, CFP-Ran, YFP-importin-beta, homogeneous, primary screen. AID 2216. cell-free CFP-Ran/YFP-importin-beta FRET ratio. inhibition, % (no concentration beside the values). 300,000 compounds, 1.1% hits;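 active = most replicates above 15%; inconclusive = exactly half above 15%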;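 also: 0% = DMSO wells and 100% = Ran loaded with GDP instead of GTP; wells of about 40 µL received 100 nL stock; the first replicate is given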
# Beta cell apopt: blocks beta cell apoptosis; INS-1E cytokine-induced death, ATP luminescence, 48 h; percent of positive-control rescue, neutral wells zero; protection from apoptosis, % (no concentration beside the values); 300,000 compounds, 0.8% hits;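 active = all replicates at 75% or more, or half of them and the mean; inconclusive = half reach 75% but not the mean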;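 also: 0% = cytokine-treated negative control wells and 100% = positive control rescue; higher means more ATP so stronger rescue from cytokine killing; wells of about 40 µL received 100 nL stock; the first replicate is given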
# T cruzi repl: blocks replication of Trypanosoma cruzi | AID 1885 | T. cruzi beta-gal in NIH3T3, luminescence, 90 h | inhibition, % (test concentration not listed) | 300,000 compounds, 1.4% hits;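 active = mean inhibition across valid replicates above about 55%, limit read from the data; inconclusive = mean below that limit but half or more replicates reach it; inactive = mean below it, under half of replicates reach it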;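 also: signal also drops with host cell toxicity which is not excluded here; 0% = plate median of DMSO wells and 100% = zero luminescence signal; higher percent means less beta-gal luminescence so fewer parasites; stock transfer was 50 nL into about 50 µL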
# UCH37 DUB inh: inhibitors of human deubiquitinating enzyme UCH37; inhibition, % (concentration not given with the values); purified proteasome/UCH37, Ub-AMC cleavage fluorescence; AID 588478; 330,000 compounds, 0.33% hits;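 active = mean of two replicates above 20%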;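 also: 0% = compound-free wells with enzyme and 100% = wells lacking proteasome; stock transfer was 100 nL into about 20 µL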
# Target sequence (Q9Y5K5 whole entry, looked up): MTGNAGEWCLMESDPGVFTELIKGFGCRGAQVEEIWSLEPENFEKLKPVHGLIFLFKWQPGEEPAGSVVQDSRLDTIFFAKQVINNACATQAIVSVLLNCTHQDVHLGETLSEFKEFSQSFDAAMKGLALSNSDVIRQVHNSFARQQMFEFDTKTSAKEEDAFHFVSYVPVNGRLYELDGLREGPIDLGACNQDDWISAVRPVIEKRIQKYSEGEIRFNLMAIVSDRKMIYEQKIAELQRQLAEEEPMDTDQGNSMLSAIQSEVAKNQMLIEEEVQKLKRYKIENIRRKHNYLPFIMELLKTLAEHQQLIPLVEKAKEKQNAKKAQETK
#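 Schedule: 30 min plus 25 min, room temperature / Material: human UCH37 within purified proteasomes / Technique: AMC fluorescence intensity at 355/460 nm / Buffer or medium: pH 7.4 Tris-HCl (50 mM) with ovalbumin, ATP-MgCl2, DTT / Controls: wells without proteasome as full block, compound-free enzyme plus substrate as uninhibited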
# Active calls of the source: *; ? = inconclusive; / = not tested or not shown.
SMILES,A1 inh,Calb FLC,LANA-H2B inh,B2AR ag,RanGTP-Impb inh,Beta cell apopt,T cruzi repl,UCH37 DUB inh
Nc1cccc(Nc2ncnc3ccccc23)c1,-0.2,2,2.9,3,0.4,-3,-2,2.1
CCC(C)Oc1nc2ccccc2nc1NS(=O)(=O)c1ccccc1 (stereo unspecified),1.2,-3,2.2,2,-0.7,-1,-7,7.1
Cc1ccc2c(c1)N(CCCC(=O)NCCCN1CCCCC1)C(=O)CO2,0.2,-5,3.3,-8,-1.6,-4,-14,3.5
Cc1ccc(S(=O)(=O)NCCN2CCOCC2)s1,-0.3,5,-3.0,8,-3.1,6,-5,0.2
COc1ccc(-c2sc3ccccc3c2-c2ccc(OCCN(C)C)cc2)cc1,0.7,/,3.3,18,/,76*,/,-0.1
CCn1ccc(C(=O)NCc2ccc3c(c2)OCO3)n1,-0.3,-17,6.1,-4,-1.9,1,-6,-1.1
CCc1ccc(NC(=O)CSc2nc(CSc3ccc(C)cc3)cc(=O)[nH]2)cc1,1.1,15,2.9,6,0.8,2,3,2.1
O=C(COC(=O)Cc1ccc(S(=O)(=O)N2CCOCC2)s1)Nc1ccc2c(c1)OCO2,-0.1,3,-0.1,0,1.0,-4,20,0.4
Cc1ccc(CN2CCN(/N=C/c3ccc(O)c(O)c3)CC2)cc1,-0.3,-25,0.4,4,0.5,-7,29,/
COc1cc2c(cc1OC)CN(C(=O)c1cc(S(=O)(=O)N3CCOCC3)c(Cl)cc1Cl)CC2,0.7,14,8.1,7,-2.3,6,-12,0.0
O=C(NC(=S)NCCC1=CCCCC1)c1cccnc1,1.3,-4,-4.7,-17,1.2,-6,-15,2.5
Cc1cccc(NC(=O)C2CCN(C(=O)c3ccc(F)cc3)CC2)n1,-0.1,5,-1.2,3,6.1,-6,-8,0.9
CCOc1ccc(OCCSc2ccc(S(=O)(=O)N3CCN(C)CC3)cn2)cc1,1.6,/,1.0,0,/,2,/,1.3
Cc1onc(-c2c(F)cccc2Cl)c1C(=O)c1ccccc1,0.0,3,-2.7,12,3.0,/,17,4.0
NC(=O)C1CCN(C(=O)CCC(=O)c2cccs2)CC1,-0.9,/,1.1,-2,/,3,/,1.3
CCOC(=O)N1CCN(c2nc(-c3ccc(F)cc3)cs2)CC1,-0.5,7,5.6,5,-3.8,-1,-16,3.3
CCN(CC)C(=O)Cn1nnc(-c2ccc(C)o2)n1,-0.4,-10,-3.9,1,-3.3,-3,-5,3.6
COc1ccc(CNC(=O)c2ccncc2)cc1,-0.3,3,2.1,6,3.6,3,-12,-0.8
Cc1cc(NC(=O)Nc2cc(F)ccc2C)n(C)n1,-0.2,-2,2.4,-3,1.6,-5,6,-1.3
Cc1ccc(C2CC(=O)NC(SCCC(C)C)=C2C#N)cc1 (stereo unspecified),0.3,4,-1.6,20,2.5,1,1,6.5

# One compound at a time, from the list above:
# `O=C(NC(=S)NCCC1=CCCCC1)c1cccnc1` across the screens: A1 inh: 1.3; Calb FLC: -4; LANA-H2B inh: -4.7; B2AR ag: -17; RanGTP-Impb inh: 1.2; Beta cell apopt: -6; T cruzi repl: -15; UCH37 DUB inh: 2.5
# `Cc1ccc2c(c1)N(CCCC(=O)NCCCN1CCCCC1)C(=O)CO2` across the screens: A1 inh: 0.2; Calb FLC: -5; LANA-H2B inh: 3.3; B2AR ag: -8; RanGTP-Impb inh: -1.6; Beta cell apopt: -4; T cruzi repl: -14; UCH37 DUB inh: 3.5

# Carrying on.
SMILES,A1 inh,Calb FLC,LANA-H2B inh,B2AR ag,RanGTP-Impb inh,Beta cell apopt,T cruzi repl,UCH37 DUB inh
CCn1cc(C(=O)Nc2cccc(C)c2)c(=O)c2ccc(C)nc21,-1.7,21,-9.4,/,-3.3,-2,-12,4.6
COC(=O)c1ccc(CC(=O)c2nc3ccccc3s2)cc1,0.8,1,/,7,5.9,0,6,-0.1
CC(C)CCN1CC(C(=O)NCCC2=CCCCC2)CC1=O (stereo unspecified),0.4,-22,-3.9,-11,-1.6,7,5,3.2
FC(F)(F)c1ccc2c3n(nc2c1)CCN=C3c1ccc(Cl)cc1,0.0,9,1.7,-6,-5.8,-4,2,0.2
CCN(C[C@H]1N[C@@](C)(C(=O)OC)[C@H]2C(=O)N(C)C(=O)[C@@H]12)C(=O)COc1ccccc1,-0.2,/,/,-6,/,1,/,-0.2
C/C(=N\NC(=O)c1cccc(S(=O)(=O)Nc2ccccc2Cl)c1)c1ccco1,?,?,0.5,-1,5.7,1,7,/
O=C1OCc2cc(NC(=O)C34CC5CC(CC(C5)C3)C4)ccc21,-1.5,-18,-3.5,-7,3.0,3,-5,3.8
Cc1ccc(/C(O)=C2\C(=O)C(=O)N(c3cc(C)on3)C2c2cccc(Br)c2)cc1 (stereo unspecified),0.1,-1,-0.1,4,-0.1,-7,?,6.4
CCC(C)N=C1CC(C)(C)CC(=O)/C1=C(/O)Cc1ccccc1 (stereo unspecified),0.7,-2,-3.8,0,-3.1,-8,13,/
Cc1ccccc1NC(C)C(=O)N/N=C/c1c[nH]c2ccccc12 (stereo unspecified),0.6,-4,-0.9,2,8.2,-1,1,/
O=S(=O)(NC1CCCCC1N1CCN(c2ccc(F)cc2)CC1)c1ccc(Cl)cc1 (stereo unspecified),0.0,-4,12,16,0.2,13,34,3.8
COc1ccc(S(=O)(=O)Nc2cc3c4c(c2)CCN4C(=O)CC3)cc1OC,-0.1,12,-2.5,2,5.8,-5,-4,1.5
c1cnc2cc(-c3ccsc3)ncc2c1,-3.8,/,4.2,-3,/,-6,/,3.0
O=C(Nc1ccccc1N1CCOCC1)c1ccc([N+](=O)[O-])cc1,0.6,-6,1.4,-2,-1.3,-9,2,2.6
COc1cc2c(cc1OC)C(C(=O)NCc1ccco1)C(c1cccs1)N(C)C2=O (stereo unspecified),0.7,-5,2.4,-4,-0.6,-6,3,1.9
Cc1ccc2cc3c(NS(=O)(=O)c4cccc5nonc45)nn(CC(C)C)c3nc2c1,-1.2,-4,2.5,9,-1.3,0,-11,13
CC(C(=O)OCC(=O)Nc1ccc(S(=O)(=O)N2CCCCC2)cc1)N1C(=O)c2ccccc2C1=O (stereo unspecified),-1.4,-6,1.0,2,-2.4,-2,-2,5.5
CCCC12CN(C(=O)c3ccc(OC)cc3)CC(C)(CN(C(=O)c3ccc(OC)cc3)C1)C2=O,0.3,-3,2.8,-3,?,-4,0,2.1
NS(=O)(=O)c1ccc(NS(=O)(=O)c2ccc(NC(=O)c3ccc(-c4ccccc4)cc3)cc2)cc1,-0.1,1,-6.5,9,-1.4,5,-14,/
C=CCNC(=O)COC(=O)c1ccc(Cl)c(S(N)(=O)=O)c1,0.4,9,2.7,4,7.5,-8,-6,1.8

# Part of the list above in another layout:
structure | A1 inh | Calb FLC | LANA-H2B inh | B2AR ag | RanGTP-Impb inh | Beta cell apopt | T cruzi repl | UCH37 DUB inh
CC(C(=O)OCC(=O)Nc1ccc(S(=O)(=O)N2CCCCC2)cc1)N1C(=O)c2ccccc2C1=O (stereo unspecified) | -1.4 | -6 | 1.0 | 2 | -2.4 | -2 | -2 | 5.5
CCn1cc(C(=O)Nc2cccc(C)c2)c(=O)c2ccc(C)nc21 | -1.7 | 21 | -9.4 | / | -3.3 | -2 | -12 | 4.6
CC(C)CCN1CC(C(=O)NCCC2=CCCCC2)CC1=O (stereo unspecified) | 0.4 | -22 | -3.9 | -11 | -1.6 | 7 | 5 | 3.2
CCCC12CN(C(=O)c3ccc(OC)cc3)CC(C)(CN(C(=O)c3ccc(OC)cc3)C1)C2=O | 0.3 | -3 | 2.8 | -3 | ? | -4 | 0 | 2.1

# Continuation.
SMILES,A1 inh,Calb FLC,LANA-H2B inh,B2AR ag,RanGTP-Impb inh,Beta cell apopt,T cruzi repl,UCH37 DUB inh
CCCCn1c(N)c(N(CC(C)C)C(=O)CCNC(=O)c2ccc(Cl)cc2)c(=O)[nH]c1=O,-0.5,/,6.6,-1,4.4,-8,0,2.3
O=C(c1cccc(S(=O)(=O)N2CCN(c3ccc(F)cc3)CC2)c1)N1CCCC(C(F)(F)F)C1 (stereo unspecified),-0.1,-19,-4.4,0,2.1,/,18,3.7
O=C(COc1ccc([N+](=O)[O-])cc1)Nc1ccc(CN2CCOCC2)cc1,0.0,-6,3.7,-1,1.1,2,9,4.0
COc1ccc(CNc2nccs2)cc1OC,1.3,-4,0.9,-4,0.5,/,3,2.9
COc1ccc(-n2nc(C(=O)NCC(=O)NCCCN3CC(C)CC(C)C3)c3ccccc3c2=O)cc1OC (stereo unspecified),0.2,-11,0.8,9,0.2,-9,35,0.3
COc1ccc(C2NC(=O)c3ccccc3N2)cc1OC (stereo unspecified),0.1,1,-3.9,6,8.3,9,-48,-203
CC1(C)Cc2ccccc2-c2[nH]c(=S)[nH]c(=O)c21,-0.4,1,-3.9,1,1.0,-7,5,-1.1
C=CCOc1nc2c(c(=O)n(C)c(=O)n2C)n1Cc1ccc(Cl)cc1Cl,-0.2,-25,-4.4,-12,-0.9,38,28,2.6
CCc1ccc(-c2cc(C)no2)cc1S(=O)(=O)Nc1ccccn1,-1.0,-11,2.6,-2,-3.4,-2,17,-16
CCOC(=O)C(N)CSC1CC(=O)N(c2ccc(OC)cc2)C1=O (stereo unspecified),-0.3,7,1.5,12,-2.4,/,-14,2.3
Fc1ccccc1Cc1ccc(Cl)nn1,-0.7,-7,4.5,14,3.1,-12,-9,3.6
Cc1ccc(/C=N/Nc2ccc(C(=O)O)cc2)o1,-8.0,-14,0.9,3,8.0,3,2,/
COc1ccc(Nc2ncc3c(n2)CC(c2ccc(C)cc2)CC3=O)cc1 (stereo unspecified),0.4,5,-1.8,12,-1.4,/,-38,-15
N#CCCn1c(Cl)nc2ccccc21,0.3,-17,-5.1,0,-1.6,1,14,3.6
COc1ccccc1-n1c(CNC(=O)c2ccco2)nnc1SCC(=O)Nc1nccs1,0.3,1,3.3,-25,1.8,-5,-5,4.3
CCc1cc(CNC(=O)C2CCC(=O)N(Cc3ccc(Cl)cc3)C2)on1 (stereo unspecified),0.6,29,2.7,2,7.6,1,-22,1.7
COCCNC(=O)/C(C#N)=C/c1c(N2CCN(c3ccccc3)CC2)nc2c(C)cccn2c1=O,0.3,2,0.7,6,29*,1,10,-58
NNC(=S)Nc1ccc(Cl)cc1,-1.3,3,9.9,6,-2.9,-6,-8,1.6
NC(=O)C1CCN(CC(=O)Nc2cc(S(=O)(=O)N3CCOCC3)ccc2N2CCCC2)CC1,0.8,/,-0.1,-1,/,-10,/,/
CC(=O)Nc1ccc(N2CCC(C)CC2)c([N+](=O)[O-])c1,0.6,1,-3.6,-2,-1.2,4,7,1.0
C=CCNS(=O)(=O)c1cc2c3c(c1)CCN3C(=O)CC2,0.3,-9,-1.1,2,1.4,-6,3,0.5
Cc1ccc(NC(=S)N(CCN2CCOCC2)Cc2ccccc2F)cc1Cl,-0.9,-6,-2.3,0,-2.4,-8,-10,2.7
COc1ccc(OCCSc2nnc(-c3ccoc3C)n2C)cc1,-0.3,-3,-3.5,-4,-0.8,1,2,1.6
COc1ccc(-c2cc(NCCc3ccncc3)n3ncnc3n2)cc1,0.6,38,2.4,-4,1.2,1,-11,-3.1
CCCN1Cc2cccc(C(=O)NC(CC(=O)OCC)c3ccc(OCC)c(OC)c3)c2C1=O (stereo unspecified),0.3,40,5.0,-12,2.9,-9,16,-0.2
